Source: PubChem BioAssay
HIV TAR-Tat: HIV-1 TAR-Tat binding disruption | 100,000 tested, 0.6% active | AID 1259389 | z-score (test concentration not listed) | HIV-1 TAR RNA, Tat peptide displacement FRET; hits give high values;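 also: score is relative to mean and SD of negative controls; some compounds called inactive have numbers as strong as hits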
CDC25B-CDK2 inh: human CDC25B-CDK2/CyclinA binding inhibition. P30305+P24941. HTRF CDC25B-CDK2/CyclinA binding, anti-His/anti-Flag; hits give high values. z-score (concentration not given with the values). 94,000 tested, 0.72% active;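 also: score is relative to mean and SD of negative controls; strong numbers were not always called active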
* marks the source's active call; other numbers are inactive results; . = not tested or not shown.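 The calls were made as follows: active = z-score from 3 up in half or more of its runs; inactive = the rest.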

SMILES	HIV TAR-Tat	CDC25B-CDK2 inh
CCn1nccc1C1CCCN1C(=O)Nc1ccccc1Br (stereo unspecified)	-0.5	-1.6
CCN1CCN(c2nc(NCCCOC)nc3c2cnn3C)CC1	1.6	.
COc1cc(Cl)c(NC2c3ncccc3C(=O)N2Cc2ccco2)c(OC)c1 (stereo unspecified)	-0.36	.
CCOC(=O)c1cc(S(=O)(=O)N2CCCC2C(=O)Nc2cc(C)on2)cn1C (stereo unspecified)	-0.32	.
Cc1ccc(Nc2nc3ccccc3n3cnnc23)cc1Cl	-0.59	2
C=Cc1ccc(Cn2c(C(=O)OC)cc3sc(C)cc32)cc1	1.1	-1.1
CC(C)N(C)C1CCN(S(=O)(=O)c2ccc3c(c2)NC(=O)CCS3)CC1	0.36	.
CCCCn1cc(S(=O)(=O)c2ccc(OC)cc2)c(=O)c2cc(F)c(F)cc21	-0.92	-1.9
Fc1ccc(N2CCN(Cc3nnc(-c4ccccc4)o3)CC2)cc1	1	-0.39
CC1(C)Cc2c(c(N3CCOCC3)nc3sc4c(=O)n(-c5ccccc5)cnc4c23)CO1	.	0.9
COCCNS(=O)(=O)c1ccc(CCN2C(=O)c3cccnc3C2=O)cc1	-0.01	.
COc1ncnc2sc(C(=O)O)c(C)c12	1.1	0.92
COc1ccc(S(=O)(=O)NCC(c2ccc(N(C)C)cc2)N(C)C)cc1F (stereo unspecified)	-1.4	.
CC(C)Cc1nn2c(=O)cc(CSc3ccccc3NC(=O)c3ccco3)nc2s1	-0.37	.
COc1ccc(C2C3=C(Nc4[nH]c(=O)[nH]c(=O)c42)c2ccccc2C3=O)cc1 (stereo unspecified)	0.06	-2.3
O=S1(=O)N=C(Nc2ccccc2F)c2ccccc21	1.8	-0.55
Cc1ccc(C)c(N2CCN(CCCNc3nn4nnnc4c4ccccc34)CC2)c1	0.14	-1.1
O=C(O)C1C2C=CC3(CN(CC4CCCO4)C(=O)C13)O2 (stereo unspecified)	-0.77	-0.59
O=C(Nc1cc(F)ccc1F)c1c(O)c2ccccc2[nH]c1=O	-0.12	.
CCOC(=O)C(=O)Nc1nc2c(s1)C(=O)CC(C)(C)C2	2.7	0.24
Cc1ccc(Cn2c(Br)nc3c2c(=O)n(C)c(=O)n3C)cc1	.	-0.48
COc1ccc(-c2onc(C)c2C)cc1S(=O)(=O)NC1CCC(C)CC1 (stereo unspecified)	-2.1	.
COC(=O)c1c(C(=O)OC)c2n(c1C)CSC2	.	-0.82
CCc1cc2c(=O)c(Oc3ccc4ccccc4c3)c(C)oc2cc1OC(C)=O	.	-3.7
CCCCN1C(SCC(=O)NCc2cccs2)=NS(=O)(=O)c2ccccc21	1.3	.
Fc1ccc(CNc2ncnc3nc[nH]c23)cc1	.	-0.05
Cc1ccccc1-c1noc(-c2nnn(-c3cccc(F)c3)c2N)n1	-0.13	.
Cc1ccc(C2C(C#N)=C(N)Oc3n[nH]c(-c4ccc5c(c4)OCO5)c32)o1 (stereo unspecified)	.	-1.4
COC(=O)/C=C(\C)NCCN/C(C)=C/C(=O)OC	.	-2.5
Cc1ccc(-n2nnc(-c3nc(-c4ccccc4C)no3)c2N)c(C)c1	0.35	.
CCOC(=O)c1oc2ccc(S(=O)(=O)N3CCCC3c3ccco3)cc2c1C (stereo unspecified)	0.45	-1.4
Cc1ncc(-c2ccc(C)c(S(=O)(=O)Nc3ccccc3Cl)c2)o1	0.94	.
Cc1ccc(C)c(N2C(=O)N(C)c3ccccc3S2(=O)=O)c1	0.7	.
C[C@@H]1CC[C@@]23CCC4(C)[C@@](C=CC5[C@@]6(C)CCC(=O)C(C)(C)C6CC[C@]54C)(OC2=O)C3[C@H]1C (stereo partly specified)	1.6	.
O=C1CCc2cc(S(=O)(=O)N3CCC(C(=O)NC4CCCCCCC4)CC3)ccc2N1	.	-0.43
O=S(=O)(NCCSCc1ccco1)c1cccc2nonc12	.	-1.4
Cc1ccc(C)n1-c1cccc(N)c1	-3.2	4
CCN(Cc1ccccc1)C1=NS(=O)(=O)C(c2ccc(C)c(C)c2)=C1C	2.1	-2.3
O=C1CSC(c2ccccc2Cl)N1c1ccccc1 (stereo unspecified)	0.43	1.6
Nc1ncccc1OCc1ccc(Cl)c(Cl)c1	.	-1.7
CCOC(=O)N1CCC(Nc2c(NCCN3CCN(c4ccccc4F)CC3)c(=O)c2=O)CC1	0.88	0.2
Cn1c(N2CCN(S(=O)(=O)c3ccc(F)c(Cl)c3)CC2)nc2ccccc21	0.77	0
CCCc1nc2c3cc(OC)c(OC)cc3[nH]c(=O)n2n1	3.3	-1.1
O=c1ccccn1Cc1cn2ccccc2n1	.	-0.13
CC(CNc1nc2ccc(Cl)cc2n2cnnc12)c1ccccc1 (stereo unspecified)	-0.4	-6.8
Cc1cc(Br)ccc1NC(=O)c1sc2nc3n(c(=O)c2c1C)CCCC3	1.3	.
CCN(Cc1ccccc1)S(=O)(=O)c1ccc(-c2coc(C)n2)cc1	-0.08	.
Cc1c(C(=O)O)c(=O)n(-c2ccccc2)n1-c1ccccc1	.	-2
Cc1cc2n(n1)CCC(=O)N2CCCC(=O)NCCCN1CCCCC1	0.04	.
CCN(CC)CCCNC(=O)CCc1c(C)nc2c(c1C)c(=O)n(C)c(=O)n2C	-1.5	-3.2

Going on with the list.
SMILES	HIV TAR-Tat	CDC25B-CDK2 inh
CCc1ccc(S(=O)(=O)c2nnn(-c3cccc(F)c3)c2N)cc1	2.2	0.54
Cc1ccc2oc(SCC(=O)Nc3cccc(Br)c3)nc2n1	0.52	.
N/C(=N\OC(=O)c1ccc(-c2cccs2)s1)c1cccc(C(F)(F)F)c1	.	-2.3
COc1ccc(OC)c(Nc2nc3nonc3nc2Nc2cccc(Br)c2)c1	0.81	-0.33
O=C(CSc1nnc(Cn2c(=O)sc3ccccc32)n1-c1ccccc1)Nc1ccccc1	.	-1.7
COC(=O)[C@H]1[C@H]2C[C@H]3c4[nH]c5cc(OC)ccc5c4CCN3C[C@H]2C[C@@H](OC(=O)c2cc(OC)c(OC)c(OC)c2)[C@@H]1OC	2.2	.
O=C(CN1C(=O)c2cccnc2Sc2ccccc21)NCCCN1CCOCC1	1.2	.
COCCn1c(SCc2cccnc2)nnc1-c1c[nH]c2ccccc12	.	-0.32
COC(=O)CSC1=C(C#N)C(c2ccc(OCc3ccccc3)cc2)CC(=O)N1 (stereo unspecified)	0.94	-0.38
COc1cc(C2c3c(oc4ccc(C)cc4c3=O)C(=O)N2CCCN(C)C)ccc1OCCC(C)C (stereo unspecified)	-1.4	-1
COc1ccc(OC)c(NC(=O)CSc2nc3c(c(=O)[nH]2)CCCC3)c1	0.86	-0.04
COc1ccc(OC)c(Nc2c(-c3ccc(C(C)C)cc3)c(=O)c2=O)c1	2.6	.
CSc1ccccc1NC(=O)C1=CC(c2cccs2)=NS(=O)(=O)N1C	1.2	-1.8
COc1ccc(C2CC(=O)C3=C(C2)Nc2ccccc2NC3c2cccc(Br)c2)cc1 (stereo unspecified)	0.09	-0.96
O=C1CSc2ccc(S(=O)(=O)NCc3ccccc3)cc2N1	0.46	.
COc1cccc(C2Nc3ccccc3NC3=C2C(=O)CC(C)(C)C3)c1OC (stereo unspecified)	0.35	-2.6
CC(Sc1nnc(-c2cccnc2)o1)C(=O)N1CCc2ccccc21 (stereo unspecified)	-1.1	0.07
O=C(N1CCOc2ccccc21)n1ccnc1	.	-3.1
COc1ccc(C2NC(=O)c3n[nH]c(-c4cccs4)c32)cc1 (stereo unspecified)	2	0.21
O=C(CN1C(=O)CSc2ccc(S(=O)(=O)N3CCCC3)cc21)NCc1cccs1	1.1	.
O=c1c2ccccc2n2c(=O)[nH]nc2n1-c1ccccc1	2	-0.3
CC(C)NC(=O)c1cccc(-n2cnnc2)n1	0.39	.
Cc1nc(-c2ccc(C)c(S(=O)(=O)Nc3ccc(F)cc3C)c2)cs1	0.76	.
COc1cccc(-c2cnc(Nc3ccc(F)cc3)s2)c1	.	0.84
NC(=O)C[n+]1cc(Br)ccc1N	.	1.6
CS(=O)(=O)c1ccc2nc(NC(=O)Nc3ccc(F)c(Cl)c3)sc2c1	1.5	-1
COc1cc(/C=C2/SC(=S)N(CC(=O)Nc3nc4ccccc4s3)C2=O)cc(OC)c1OC	.	-2
Cc1cc(NS(=O)(=O)c2ccc(NCN3C(=O)c4ccccc4C3=O)cc2)no1	.	-0.06
Cc1ccn2c(Nc3ccccc3)c(-c3ccccn3)nc2c1	.	0
FC(F)(F)c1cc(-c2ccco2)nc2ncnn12	-0.86	0.42
O=S(=O)(NC1CCCc2ccccc21)c1cccc2cccnc12 (stereo unspecified)	.	-0.44
Cc1cc(C)nc(-n2ncc3c2CC(c2ccc(F)cc2)CC3=O)n1 (stereo unspecified)	1.2	-2.3
COc1ccc(Br)cc1CNC(=O)C(C)n1nc(C)n2c(cc3occc32)c1=O (stereo unspecified)	0.44	-2.1
CCn1c2ccccc2c2nnc(NCc3ccccc3OC)nc21	2.2	-0.91
O=S1(=O)N=C(C2CCCCC2)Nc2ccc(S(=O)(=O)N3CCCCC3)cc21	0.68	-1.8
CC1=C(C(=O)OC2CCCCC2)C(c2ccccc2Cl)C2=C(CCCC2=O)N1 (stereo unspecified)	-0.21	-0.01
Cc1c(C)c2cc3c4c(oc3c(C)c2oc1=O)CCCC4	.	0.16
COc1ccc(OC)c(NC(=O)[C@H](CCSC)N2Cc3ccccc3C2=O)c1	0.13	-0.99
CCCCCN=C(N)N/N=C/c1c[nH]c2ccc(OC)cc12	-0.44	.
COc1ccc2c(c1)CCC1C2CCC2(C)C1C[C@@H](O)C2O (stereo partly specified)	2.7	.
Cn1c(C(=O)N2CCN(c3cccc(Cl)c3)CC2)cc2c(=O)n(C)c3ccccc3c21	.	-2.2
CCCCC(=O)N(c1ccc2oc(=O)sc2c1)S(=O)(=O)c1ccc(C(=O)O)cc1	1.3	-3.1
O=C(Nc1nc(-c2cccnc2)cs1)c1ccc(-c2nc3ccccc3s2)s1	1	.
CC1(C)S[C@@H]2[C@H](NC(=O)[C@H](NC(=O)N3CCNC3=O)c3ccccc3)C(=O)N2C1C(=O)O (stereo partly specified)	-1.1	.
COc1ccc2c(c1)oc(=O)c1ccccc12	0.03	-1.7
COc1ccc(-c2nc(N)n(S(=O)(=O)c3ccc(Cl)cc3)n2)cc1	.	-2
Cc1c(C(=O)NCCCN2CC(C)CC(C)C2)sc2nc3n(c(=O)c12)CCCCC3 (stereo unspecified)	0.61	.
NCCNC(=O)c1c(O)c2ccccc2oc1=O	.	-0.03
Cc1nnc(NC(=O)CSCc2cc(=O)n3ccccc3n2)s1	0.5	.
CCOc1ccc(/C(O)=C2\C(=O)C(=O)N(CCCN(C)C)C2c2ccc(F)cc2)c(C)c1 (stereo unspecified)	0.85	0.03

Additional structures follow:
SMILES	HIV TAR-Tat	CDC25B-CDK2 inh
O=C(CCc1nc(-c2ccco2)no1)Nc1ccc(F)cc1	0.47	1.4
Cc1cc(N2CCN(c3ccc(F)cc3)CC2)n2cnnc2n1	1	-0.07
CCn1nccc1C1CCCN1S(=O)(=O)c1ccc(C)cc1 (stereo unspecified)	1.5	-1.1
Cc1cc(C)c(NC(=O)C2CCCN2S(=O)(=O)c2ccc(-c3ccc(=O)[nH]n3)s2)c(C)c1 (stereo unspecified)	-1.3	.
O=C(CCc1nnc2ccc(N3CCCC3)nn12)N1CCN(c2ccc(F)cc2)CC1	-0.29	.
Cc1cc(Sc2ccccc2N)n2nc(-c3ccccc3)nc2n1	-0.19	1.6
COc1cc2nc(SCc3cccc(Cl)c3)n3nc(C)nc3c2cc1OC	.	-1.3
Cc1ccc2nc(NCCC(C)C)c3nnnn3c2c1	-0.09	.
CC(CNS(=O)(=O)c1ccc(-c2ccc(=O)[nH]n2)o1)c1ccccc1 (stereo unspecified)	2.7	.
O=C(O)c1ccc2c(=O)n(CC3CCCO3)c(=S)[nH]c2c1 (stereo unspecified)	.	-1.7
CC(C)(C)c1ccc(OCCSc2nc(-c3ccco3)nc3cc(=O)[nH]n23)cc1	1.1	.
Cc1nc(-c2ccccc2)sc1C(=O)Nc1ccccc1	.	-1.6
CCCOC(=O)c1c(-c2ccccc2)c(-c2ccccc2)n[nH]c1=O	3	-2
Cc1ccc(-c2nc(SCc3cc(=O)c4cccc(C)c4[nH]3)n[nH]2)cc1	-1.2	.

By substructure: the entries above containing a thiophene ring, fused or not
SMILES	HIV TAR-Tat	CDC25B-CDK2 inh
C=Cc1ccc(Cn2c(C(=O)OC)cc3sc(C)cc32)cc1	1.1	-1.1
CC1(C)Cc2c(c(N3CCOCC3)nc3sc4c(=O)n(-c5ccccc5)cnc4c23)CO1	.	0.9
COc1ncnc2sc(C(=O)O)c(C)c12	1.1	0.92
CCCCN1C(SCC(=O)NCc2cccs2)=NS(=O)(=O)c2ccccc21	1.3	.
Cc1cc(Br)ccc1NC(=O)c1sc2nc3n(c(=O)c2c1C)CCCC3	1.3	.
N/C(=N\OC(=O)c1ccc(-c2cccs2)s1)c1cccc(C(F)(F)F)c1	.	-2.3
CSc1ccccc1NC(=O)C1=CC(c2cccs2)=NS(=O)(=O)N1C	1.2	-1.8
COc1ccc(C2NC(=O)c3n[nH]c(-c4cccs4)c32)cc1 (stereo unspecified)	2	0.21
O=C(CN1C(=O)CSc2ccc(S(=O)(=O)N3CCCC3)cc21)NCc1cccs1	1.1	.
O=C(Nc1nc(-c2cccnc2)cs1)c1ccc(-c2nc3ccccc3s2)s1	1	.
Cc1c(C(=O)NCCCN2CC(C)CC(C)C2)sc2nc3n(c(=O)c12)CCCCC3 (stereo unspecified)	0.61	.
Cc1cc(C)c(NC(=O)C2CCCN2S(=O)(=O)c2ccc(-c3ccc(=O)[nH]n3)s2)c(C)c1 (stereo unspecified)	-1.3	.
